eIF4H FP inh: human eIF4H binding inhibitors, primary screen, translation initiation inhibitor project, biochemical, uHTS, fluorescence polarization | Eukaryotic translation initiation factor 4H (Homo sapiens), Q15056 | eIF4H fluorescence polarization binding assay | inhibition, % at 35 µM | 0.94% of 290,000 active | AID 2012, 2009;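 active means 50% or more with normal probe brightness, or confirmed in later tests; about a fifth of its hits are not listed in these tables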;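 further: calls also rest on retests at 20 µM and on dose response follow-up; 0% = protein and probe with vehicle and 100% = probe without protein; strong numbers were not always called active; many hits fall short of the cut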
PABP polyA inh: PABP poly(A) RNA binding inhibitors, primary screen, biochemical, fluorescence polarization, uHTS | AID 2014, 2009 | inhibition, % at 35 µM | Polyadenylate-binding protein 1 (Homo sapiens), P11940 | 1% of 290,000 active;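 active means 50% or more with normal probe brightness, or confirmed in later tests; about a fifth of its hits are not listed in these tables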;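 further: calls also rest on retests at 20 µM and on dose response follow-up; controls were probe without protein and protein plus probe with vehicle; some compounds called inactive have numbers as strong as hits; many hits fall short of the cut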
Target sequence (P11940 whole entry, looked up): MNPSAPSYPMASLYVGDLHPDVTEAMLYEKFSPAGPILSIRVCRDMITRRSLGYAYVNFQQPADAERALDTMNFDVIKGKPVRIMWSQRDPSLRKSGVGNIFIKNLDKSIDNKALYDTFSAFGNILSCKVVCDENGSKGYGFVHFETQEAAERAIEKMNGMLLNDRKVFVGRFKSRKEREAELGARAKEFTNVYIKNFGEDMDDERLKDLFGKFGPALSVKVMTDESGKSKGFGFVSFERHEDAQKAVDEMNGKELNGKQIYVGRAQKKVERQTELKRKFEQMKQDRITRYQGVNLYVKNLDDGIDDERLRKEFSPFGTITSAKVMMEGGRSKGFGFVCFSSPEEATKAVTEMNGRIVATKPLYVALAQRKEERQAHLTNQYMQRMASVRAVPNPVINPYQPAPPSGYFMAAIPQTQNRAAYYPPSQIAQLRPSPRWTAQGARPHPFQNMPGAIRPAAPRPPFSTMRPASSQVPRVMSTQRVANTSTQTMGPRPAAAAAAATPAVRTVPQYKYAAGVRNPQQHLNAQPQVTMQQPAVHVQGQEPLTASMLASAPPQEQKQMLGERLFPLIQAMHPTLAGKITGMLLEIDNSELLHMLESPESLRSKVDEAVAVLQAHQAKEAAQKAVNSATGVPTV
Yeast UUG start: modulators of yeast start codon fidelity, primary screen, whole organism, S. cerevisiae, single point, plate reader; 0.13% of 350,000 active; S. cerevisiae UUG-firefly luciferase reporter, luminescence/redox ratio; activity score, % at 18.7 µM;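 active means replicate mean at a twofold rise or more, about +100% in these data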;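 further: firefly luciferase made from a UUG start codon reports start codon fidelity; reporter light over untreated wells divided by growth signal over untreated wells; some hits fall short of that in this replicate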
MT1-MMP act inh: blockers of MT1-MMP proenzyme processing, primary screen, HT1080 RFP-PRO-GFP cells, GFP/RFP fluorescence; Matrix metalloproteinase-14 (Homo sapiens), P50281; GFP/RFP ratio fluorescence, overnight; percent of plate control window, DMSO zero; GFP/RFP ratio change, % at 20 µM; 0.061% of 360,000 active;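 active means GFP/RFP ratio change of at least 30% with cell ATP level not reduced by more than half and red fluorescence within 50% of control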; further: strong numbers were not always called active
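Assay system: HT1080 cells carrying an RFP-PRO-GFP reporter | Dosing: Single dose of 20 µM compound, 1% DMSO final | Incubation: Cells overnight before dosing, compound overnight, 37 °C, 5% CO2 | Evaluation: GFP/RFP fluorescence ratio | Control set: DMSO and RFP-L50D-GFP cell wells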
Env fusion inh: inhibitors of HIV-1 Env-driven cell-cell fusion, primary screen, HeLa-JRFL effector, CEM21 target cells, luciferase; AID 651610, 2012; 1.1% of 360,000 active; inhibition, % at 12.3 µM;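 active means mean replicate inhibition score of at least 50 and every replicate individually at or above 50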;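 further: 0% = plate neutral controls and 100% = maraviroc near 300 nM; one replicate is shown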
Rce1 inhib: yeast Rce1p protease inhibitors, primary screen, biochemical, fluorescence, cell-free homogeneous. CAAX prenyl protease 2 (Saccharomyces cerevisiae (strain ATCC 204508 / S288c)), Q03530. yeast membranes, quenched prenylated peptide cleavage fluorescence. calls only. 0.27% of 290,000 active;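 active means fall in fluorescence gain of 50% or more versus controls, with final raw signal at or below 3038400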;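 further: plate controls were neutral control wells for no effect and wells lacking membranes for full effect; tested at 10 µM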
CSC inhib: cancer stem cell viability inhibitors, primary screen, luminescence; cancer stem cell-like cells viability; inhibition, % at 7.5 µM; 1.1% of 300,000 active; AID 2717, 2010;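 active means mean at 75% or more and at least half the replicates too; tested in HMLE shEcad cells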;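 further: 0% = median of negative and 100% = median of positive control wells; the first replicate is given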
eIF4H FP inh retest: also measured in eIF4H FP inh; calls as there; inhibition, %; compound at 20 µM; confirmation average;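 mean of two retest wells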
PABP polyA inh retest: second read-out of PABP polyA inh, no call of its own (marks repeat the call); inhibition, %; compound at 20 µM; confirmation repeats;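 mean of two retest wells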
MT1-MMP act inh RFP: second read-out of MT1-MMP act inh, no call of its own (marks repeat the call); RFP signal change, %; measured here: RFP expression control read;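 0 = vehicle wells; hits needed this value within 50% of zero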
* hit, by the source's call; i = inactive; . = no result given. The list is partial. The share of hits here may be higher or lower than overall.

SMILES	eIF4H FP inh	PABP polyA inh	Yeast UUG start	MT1-MMP act inh	MT1-MMP act inh RFP	Env fusion inh	Rce1 inhib	CSC inhib	others
CCOC(=O)N1CCN(C(=O)Cc2ccsc2)CC1	-4	-3	-18	1	4	.	i	-10
Cc1ccc(N2C(=O)c3ccc(C(=O)N4CCN(c5ccc(C)c(C)c5)CC4)cc3C2=O)cc1	-1	5	4	-5	-2	11	i	-8
CCOc1ccccc1NC(=O)CCCNC(=O)Cn1cnc2sc(C)c(C)c2c1=O	-3	4	-5	0	-1	7	i	-11
COc1cc(CNCCc2ccc(S(N)(=O)=O)cc2)ccc1OCC(=O)NC1CCCCC1	-13	-4	-9	3	3	-9	i	-5
CCc1ccc(-n2c(O)cnc2Nc2nc(C)cc(C)n2)cc1	-5	-2	-23	1	1	-4	i	5
COc1ccccc1CNC(=O)CCC(=O)N1CCOc2ccc(Cl)cc21	0	-10	2	3	2	-6	i	-1
Cc1cc2cc3c(cc2nc1SCC(=O)Nc1c(C)cccc1C)CCC3	3	5	-20	-10	-9	.	i	.
O=C(Cc1sc(Nc2ccccc2)nc1-c1ccccc1)NCc1ccccc1	-9	1	.	2	-3	-22	i	6
Cc1sc2nc(CSCC(=O)Nc3cc(F)ccc3F)[nH]c(=O)c2c1C	.	.	-1	-3	-3	.	.	-11
O=C(Cc1ccc(NC(=O)C2CCN(C(=O)C3CC3)CC2)cc1)Nc1cccc(C(=O)N2CCCC2)c1	.	.	2	3	5	30	.	.
C[C@H](NC(=O)c1nc[nH]c1C(=O)N1CCc2ccccc2C1)C(=O)OC(C)(C)C	3	-5	-16	5	6	-22	i	4
Cc1cc(=O)n2nc(N3CCC(C(=O)NC4CCCc5ccccc54)CC3)sc2n1 (stereo unspecified)	-8	-8	-13	-5	3	.	.	-5
O=c1c2c3c(sc2nc2n1CCCC2)CCCCC3	-1	-3	-14	2	-1	.	i	.
O=C(COc1ccc(S(=O)(=O)N2CCCC2)cc1Cl)NC1CC1	1	5	-9	1	6	-58	i	-4
COCCCn1c(SCC(=O)N2CC(=O)Nc3ccccc32)nnc1-c1ccoc1C	-4	14	-21	-4	5	-1	i	.
O=C(CNC(=S)N(Cc1ccccc1Cl)C1CCCC1)NCCN1CCOCC1	-2	4	.	-3	0	-7	i	-13
COc1cc(NC(=O)c2ccccc2)c(OC)cc1NC(=O)CN1CCOCC1	0	7	-11	5	9	.	i	-5
COCc1cccc(-c2csc(C(O)c3ccc(F)c(OC)c3)n2)c1 (stereo unspecified)	.	.	-6	-8	-18	8	.	.
Cc1ccc(C)c(NC(=O)CCN2CCN(C)CC2)c1	-9	-5	-6	-3	4	-13	i	-5
Cc1cccc(NC(=O)c2ccccc2O)c1C	-8	0	.	-3	-6	.	i	-1
CN(CC(=O)Nc1ccccc1N1CCOCC1)CC(=O)Nc1ccc(F)c(F)c1F	-7	2	.	-5	-2	-4	i	-8
CN(C)S(=O)(=O)c1cccc(NC(=O)COC(=O)CNC(=O)c2cccc([N+](=O)[O-])c2)c1	1	4	4	-1	-4	-11	i	-9
Nc1ccc2nc(C(F)(F)F)[nH]c2c1	-1	8	.	0	-1	13	i	2
COc1ccc([C@@H]2Sc3ccccc3NC(=O)[C@@H]2O)cc1	.	.	.	1	-3	9	i	-9
CC1CCCN(Cc2ccc(OCc3ccccc3)cc2)C1 (stereo unspecified)	0	0	-18	5	5	6	i	31

Remaining list, next part:
SMILES	eIF4H FP inh	PABP polyA inh	Yeast UUG start	MT1-MMP act inh	MT1-MMP act inh RFP	Env fusion inh	Rce1 inhib	CSC inhib	others
Cc1cccn2c(=O)c3cc(C(=O)NC4CCCCC4)c(=N)n(Cc4ccccc4)c3nc12	-3	2	11	-4	-12	-20	i	10
Nc1ccc(Sc2cnn(-c3ccccc3)c(=O)c2Cl)cc1	4	-2	-2	-3	-4	.	i	5
O=C(CSc1nc2c(cnn2-c2ccccc2)c(=O)[nH]1)N1N=C(c2cccs2)CC1c1ccc(F)cc1 (stereo unspecified)	-3	0	-8	-2	-1	-6	i	4
COc1ccc(S(=O)(=O)NCc2ccccn2)cc1	7	-5	-10	0	0	-7	i	-1
CN(C)CCCN(C(=O)c1cc2ccccc2oc1=O)c1nc2ccc(F)cc2s1	-9	-3	-6	5	3	7	i	12
NC(=O)CSc1nnc(-c2ccc(S(=O)(=O)N3CCCC3)cc2)n1CC1CCCO1 (stereo unspecified)	-7	2	-4	5	4	-99	i	0
O=[N+]([O-])c1ccc(/C=N/n2cnc3ccccc32)s1	2	-2	-6	-16	-22	-2	i	100*
CCN(CC)C(=O)Cn1nc(-c2ccccc2O)nc1SCC(=O)Nc1ccc(OC)cc1	4	0	-8	-1	3	.	i	-6
Cc1cccc(Nc2ccc([N+](=O)[O-])cn2)c1	-6	1	-17	-1	1	-35	i	-4
CN1CCN(C2Cc3cc(Cl)ccc3Sc3cc(F)ccc32)CC1 (stereo unspecified)	.	.	.	-8	-9	14	i	101*
Cc1ccc2c(c1)N(CC(=O)NCC1CCCO1)C(=O)CO2 (stereo unspecified)	-4	4	0	1	-1	-10	i	-12
CCC(=O)Nc1cccc(C(=O)OCc2cccc([N+](=O)[O-])c2)c1	-5	-3	-11	5	0	8	i	.
O=C(CSc1cccc2cccnc12)N/N=C/c1cccnc1	-10	-6	.	3	-6	14	i	16
Cc1cc2c(=O)n(C)c(SCC(=O)NC3CCCC3)nc2s1	.	.	-8	3	0	11	i	-15
O=C(Nc1ccc(Cl)c([N+](=O)[O-])c1)c1ccc(NCCCN2CCOCC2)c([N+](=O)[O-])c1	-4	4	-1	-5	-5	-17	i	.
CCOc1ccc(Nc2oc(-c3cccc(Cl)c3)nc2C#N)cc1	0	-9	.	4	1	-16	i	0
Cc1c(/C(O)=C2\C(=O)C(=O)N(CCCN(C)C)C2c2ccco2)cnn1-c1ccccc1 (stereo unspecified)	.	.	-39	0	1	-16	.	.
Cc1[nH]n(-c2ccccc2)c(=O)c1C=Nc1ccc(S(=O)(=O)N=C(N)N)cc1	-2	2	-19	-3	5	11	i	-4
Cc1cc(C)nc(NNS(=O)(=O)c2ccc(Cl)cc2)n1	.	.	.	5	2	-8	.	3
CN(CCc1ccccn1)S(=O)(=O)c1ccc(F)cc1	72	13	10	-1	2	.	i	5	eIF4H FP inh retest=8;PABP polyA inh retest=4
COC(=O)c1cc2ccccc2c(-c2c(O)ccc3ccccc23)c1O	0	13	8	-7	-13	.	i	27
Brc1ccc(Oc2ncc(CN3CCOCC3)s2)cc1	2	-1	0	-3	-9	-18	i	-5
Nc1nc2nc(SCC(=O)N3CCCc4ccccc43)[nH]c2c(=O)[nH]1	-10	2	.	.	.	.	.	-2
FC(F)(F)c1ccnc(Sc2n[nH]c(C(F)(F)F)n2)c1	2	10	.	3	3	2	.	10
Cc1nn(-c2ccccc2)c(N)c1C(O)(CC(=O)C(F)(F)F)C(F)(F)F (stereo unspecified)	-3	-6	.	16	90	3	i	.

The list goes on.
SMILES	eIF4H FP inh	PABP polyA inh	Yeast UUG start	MT1-MMP act inh	MT1-MMP act inh RFP	Env fusion inh	Rce1 inhib	CSC inhib	others
Nc1cccc(P(=O)(c2ccccc2)c2ccccc2)c1	-10	8	.	-1	3	13	i	-4
CN1C(=O)CSc2ccc(NC(=O)Nc3ccccn3)cc21	17	70	.	-5	0	.	i	9	eIF4H FP inh retest=-6;PABP polyA inh retest=3
COC(=O)C1C2C=CC3(CN(Cc4cccs4)C(=O)C13)O2 (stereo unspecified)	0	-11	6	-2	0	4	i	-3
CCOC(=O)c1c(C)n(C)c2ccc(OC)c(NC(=O)CCN3CCSCC3)c12	-9	-1	-10	7	4	2	i	-2
COc1ccc(-c2nc3c(n2O)CCCC3=O)cc1OC	3	-5	-8	-4	1	.	i	-6
NC(=O)c1ccccc1N	.	.	8	.	.	.	i	0
CS(=O)c1nc(-c2ccc(Br)cc2)cc(-c2ccccc2)c1C#N (stereo unspecified)	8	4	-3	-10	-7	.	i	75*
Cc1cc(NC(=O)CC#N)n(-c2nc3ccccc3[nH]2)n1	22	13	-18	-13	7	-12	i	11
CC(C)CN(CC(C)C)C(=O)Cc1coc2ccc3ccccc3c12	4	5	-11	-11	-11	-23	i	4
O=C(O)CCCC(=O)Nc1cccc([N+](=O)[O-])c1	1	5	.	0	3	4	i	-3
CCc1c(C)nc(SCC(=O)c2ccc(C)c(C)c2)[nH]c1=O	-1	10	-5	7	0	.	i	11
O=C(CNC1CCCC1)Nc1ccc(N2CCCCCC2)cc1	1	8	.	3	1	9	i	.
CC(OC(=O)c1ccccc1O)C(=O)Nc1cccc(Cl)c1 (stereo unspecified)	-7	-2	-35	2	-12	0	i	3
COC(=O)c1sc(NC(=O)COc2cccnc2[N+](=O)[O-])c(C(=O)OC)c1C	.	.	-12	0	-6	.	.	13
O=c1oc(-c2ccc(Cl)cc2[N+](=O)[O-])nc2ccccc12	.	.	-29	-2	1	-25	.	.
CCn1c(=O)c(CCC(=O)NCC2CCCO2)c(C)c2c(C)nn(-c3ccccc3)c21 (stereo unspecified)	-12	5	3	-5	-12	10	i	6
CCOC(=O)c1c(/N=C/N(C)C)sc(C=O)c1-c1ccccc1	4	-6	.	-2	2	6	i	-3
Cc1[nH]c(=O)[nH]c(=O)c1S(=O)(=O)N1CCCC1	12	-13	-21	5	3	.	i	-2
Cc1ccc(CCNC(=O)C2CCN(S(=O)(=O)c3cccc4nsnc34)CC2)cc1	4	-15	-13	-3	-5	-15	.	-7
Cc1ccc(Nc2nc(N3CCOCC3)nc(N3CCOCC3)n2)cc1C	-5	1	-5	-3	-4	-5	i	47
COc1ccc(-c2nnc(-c3cccnc3)o2)cc1	-7	6	-21	0	-9	-242	.	-14
CCCCN(C(=O)NC(=O)Nc1nc2ccc(OC)cc2s1)S(C)(=O)=O	-10	2	-32	12	-1	.	i	5
COCCN(C(=S)Nc1cc(C)cc(C)c1)C(C)c1cccnc1 (stereo unspecified)	-12	-1	-15	1	4	-10	i	5
COCCc1ncc(CN2CCCC(C(=O)Nc3cccc(-c4cccc(C)c4)c3)C2)cn1 (stereo unspecified)	-3	1	-15	0	-4	1	i	-5
O=C(O)CCn1c(-c2ccccc2)cc2ccccc21	13	14	.	0	5	5	i	0

Other records:
SMILES	eIF4H FP inh	PABP polyA inh	Yeast UUG start	MT1-MMP act inh	MT1-MMP act inh RFP	Env fusion inh	Rce1 inhib	CSC inhib	others
O=C1NN(c2ccc(F)cc2)C(=O)/C1=C/c1cccs1	4	5	.	2	2	3	i	-4
CCCCCCCOc1ccc(-c2ccc(C#N)cn2)cc1	-3	7	0	2	-1	.	i	-5
O=C1CC(Nc2ccccc2)C(=O)N1c1ccc(N2CCOCC2)cc1 (stereo unspecified)	2	4	-16	-5	4	-34	.	6
CCOc1ccccc1-n1c(SCC(=O)N(CC)CC)nnc1-c1ccccn1	-6	-7	-6	-1	-2	.	i	-23
COc1cc(O)c2c(=O)c3c(OC)c(O)ccc3oc2c1	-6	0	-12	7	1	-121	i	.
Cc1ccc(NC(=O)CCC(=O)N/N=C/C=C/c2ccccc2)cc1	-5	6	.	-2	-1	22	i	15
COc1ccc(CNC(=O)C2CCN(S(=O)(=O)c3ccc(SC)cc3)CC2)cc1	3	2	-16	4	2	0	i	25

Source: PubChem BioAssay
